MenB inh – Mtb MenB enzyme inhibition; MenB enzyme assay, absorbance read-out; some hits fall short of the stated cut; hit rate 0.43% among 100,000; inhibition, %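 (about 12 µg/mL by stock and volumes)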; AID 540299; P9WNP5;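 active = mean of two replicates above 30%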;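 also: 0% = no compound and 100% = wells with inactive enzyme; the first replicate is given; strong numbers were not always called active; inactives centre near -10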
MbtI inh – MbtI salicylate synthase inhibition; P9WFX0; purified MbtI enzyme, fluorescence intensity read-out; inhibition, %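 (about 17 µg/mL by stock and volumes)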; hit rate 0.89% among 100,000; AID 493033;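 active = above 50% in both replicates, above 80% if mildly self-fluorescent; inactive = the rest, strongly fluorescent compounds included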;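 also: 0% = mean of negative and 100% = mean of positive controls; one replicate is shown; some compounds called inactive have numbers as strong as hits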
Target sequence (P9WFX0 whole entry, looked up): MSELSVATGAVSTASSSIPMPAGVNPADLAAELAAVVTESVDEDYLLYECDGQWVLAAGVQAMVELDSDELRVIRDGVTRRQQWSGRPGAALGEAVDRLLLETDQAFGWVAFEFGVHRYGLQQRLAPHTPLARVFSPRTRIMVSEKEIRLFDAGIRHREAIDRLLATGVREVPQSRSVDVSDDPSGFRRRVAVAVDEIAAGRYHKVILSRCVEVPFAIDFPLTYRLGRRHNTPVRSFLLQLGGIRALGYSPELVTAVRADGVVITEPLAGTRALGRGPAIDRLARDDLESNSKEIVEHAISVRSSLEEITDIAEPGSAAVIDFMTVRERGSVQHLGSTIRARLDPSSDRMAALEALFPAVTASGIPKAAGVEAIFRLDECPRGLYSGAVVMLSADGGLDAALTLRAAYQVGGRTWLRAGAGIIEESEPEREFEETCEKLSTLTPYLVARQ
PV pol inh – poliovirus RNA polymerase inhibition | AID 588519 | poliovirus polymerase elongation, fluorescence polarization; active compounds read low | % elongation, % (compound at 16.7 µg/mL) | P03300 | hit rate 0.66% among 150,000; in the data active = % elongation below about 90%; also: some results filed as inactive read as strong as hits
Target sequence (P03300 1749-2209 limits assumed): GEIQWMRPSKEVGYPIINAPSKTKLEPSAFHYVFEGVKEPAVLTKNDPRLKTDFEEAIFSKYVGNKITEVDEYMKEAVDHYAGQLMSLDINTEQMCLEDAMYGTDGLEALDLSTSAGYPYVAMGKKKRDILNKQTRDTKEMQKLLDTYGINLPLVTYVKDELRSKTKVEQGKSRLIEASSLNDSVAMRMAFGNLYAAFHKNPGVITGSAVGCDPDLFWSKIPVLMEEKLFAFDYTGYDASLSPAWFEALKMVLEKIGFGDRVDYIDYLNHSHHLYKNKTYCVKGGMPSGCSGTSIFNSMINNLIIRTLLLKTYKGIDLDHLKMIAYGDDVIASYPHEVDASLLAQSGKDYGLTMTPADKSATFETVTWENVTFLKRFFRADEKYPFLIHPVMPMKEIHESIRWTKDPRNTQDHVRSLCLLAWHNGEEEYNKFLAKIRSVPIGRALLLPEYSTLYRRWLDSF
PV pol inh intensity – also measured in PV pol inh; calls as there; % elongation; measured here: total intensity read-out; formula for this scale not given here;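 total fluorescence in place of polarization; lower means less elongation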
Numbers without * were called inactive; . = not tested or not shown.

SMILES | MenB inh | MbtI inh | PV pol inh | PV pol inh intensity
COc1ccc2c(c1)cc1n2CCN2CCCN=C12 | -1 | 19 | 101 | 102
COc1ccc(Cl)c(OC)c1C(=O)NC(=O)Nc1c(C)cccc1C | -10 | -12 | 108 | 109
Cc1nc2c(cnn2-c2ccccc2)c(=O)n1NC(=O)Nc1ccc(Cl)c(Cl)c1 | 1 | -27 | 107 | 111
C=C(C)CN(CC)Cc1ccc(O)cc1 | -23 | -7 | 103 | 104
CC(=O)Nc1ncc2c(n1)CC(c1ccc(Cl)cc1)CC2=O (configuration not stated) | -6 | -1 | 99 | 102
CC1(C)CC(=O)C2=C(C1)NC(Nc1nc3ccccc3o1)=NC2c1ccccn1 (configuration not stated) | -83 | 1 | 100 | 98
CC(=O)O/N=C(\N)c1ccc(Br)cc1 | -61 | -11 | 103 | 103
CC(=O)NNc1ccc2nnc(-c3ccccc3)n2n1 | -20 | -2 | 104 | 98
O=c1c2oc3ccccc3c2n(Cc2ccc(F)cc2)c(=O)n1Cc1ccc2c(c1)OCO2 | -26 | 13 | 101 | 105
COC(=O)C(Cc1c[nH]c2ccccc12)NS(=O)(=O)c1ccc(CNC(=O)c2ccccc2)s1 (configuration not stated) | -12 | -4 | 103 | 104
COc1ccc(-n2c(-c3ccc(C(C)(C)C)cc3)n[nH]c2=S)cc1 | -37 | 27 | 100 | 104
O=C(O)CCCN=C(c1ccc(Cl)cc1)c1cc(F)ccc1O | -1 | . | 99 | 95
C=CC(=O)Nc1cc(C(=O)OC)ccc1C(=O)OC | 0 | 15 | 107 | 99
CCC1CCCCN1C(=O)c1cc(-c2ccc(OC)c(OC)c2)on1 (configuration not stated) | 5 | 0 | 101 | 104
Cc1ccc2nc(SCC(=O)O)[nH]c2c1 | -10 | . | 103 | 106
CC(C)Cn1cc(NC(=O)NCc2ccccn2)c2ccccc2c1=O | -20 | 96 | 100 | 100
O=c1c2ccccc2nc2c3ccccc3c(NCCO)nn12 | -21 | -33 | 101 | 102
COC(=O)c1ccc(C(c2c(O)ccc3ccccc23)N2CCOCC2)cc1 (configuration not stated) | -26 | 5 | 101 | 104
O=C(O)CN1C(=O)/C(=C\c2ccsc2)SC1=S | -316 | . | 106 | 110
COc1cccc(N2C(=O)/C(=C/C=C/c3ccco3)C(=O)NC2=S)c1 | -61 | 101* | 113 | 140
CCc1cc2c(cc3c(=O)n(CC(=O)NC(C)c4ccc5c(c4)OCCO5)nc(CC)n32)s1 (configuration not stated) | 10 | -10 | 103 | 101
CCC(=O)Nc1ccc2c(c1)ncn2C | -25 | -6 | 104 | 102
CCn1c(SCC(=O)Nc2ccccc2)nc2c(c1=O)SCC2 | -4 | 8 | 102 | 101
CS(=O)(=O)N1CCN(c2ccc(NC(=O)c3ccc4c(c3)OCO4)cc2)CC1 | -8 | 4 | 103 | 104

As a short view, some entries already given:
SMILES | MenB inh | MbtI inh | PV pol inh | PV pol inh intensity
CCn1c(SCC(=O)Nc2ccccc2)nc2c(c1=O)SCC2 | -4 | 8 | 102 | 101
CS(=O)(=O)N1CCN(c2ccc(NC(=O)c3ccc4c(c3)OCO4)cc2)CC1 | -8 | 4 | 103 | 104

Following part:
SMILES | MenB inh | MbtI inh | PV pol inh | PV pol inh intensity
C/C(=N\Oc1nc(-c2ccccc2)ns1)c1cccs1 | 3 | -7 | 98 | 107
CC1(Cc2cn(CCC(=O)O)c3ccccc23)OCCO1 | . | -32 | 99 | 95
CCNC(=S)Nc1cccc(NC(=O)c2ccccc2O)c1 | 0 | -17 | 101 | 102
Nc1ccc(C(=O)OCC(=O)NC23CC4CC(CC(C4)C2)C3)cc1 | . | -11 | 102 | 106
Cc1ccc(N2C(N)=C(C#N)C(c3cccnc3)C3=C2CC(C)(C)CC3=O)cc1 (configuration not stated) | -17 | 5 | 100 | 105
CN(Cc1ccccc1)C(=O)COC(=O)C1CC2C=CC1C2 (configuration not stated) | . | -8 | 103 | 103
O=C(CSc1nnc(-c2ccc(Cl)cc2)n1CC1CCCO1)Nc1ccc2c(c1)OCCO2 (configuration not stated) | 5 | 13 | 104 | 108
COc1ccccc1NC(=O)COC(=O)C1CC2CCCC(C1)C2=O (configuration not stated) | -22 | -6 | 103 | 107
Cc1ccc(Cn2nc(C)c(/C=N/NC(=O)c3ccc4c(c3)OCO4)c2C)cc1 | -19 | -15 | 100 | 110
Cc1onc(-c2c(Cl)cccc2Cl)c1C(=O)c1ccc(F)cc1 | 8 | -2 | 102 | 92
O=C(OCc1ccccc1)C1CC2C=CC1C2 (configuration not stated) | . | -7 | 98 | 103
Cc1ccc(/C(O)=C2\C(=O)C(=O)N(Cc3cccnc3)C2c2ccccn2)cc1 (configuration not stated) | -20 | 4 | 98 | 100
NC(=S)/N=N/Nc1ccc(Cl)cc1 | -6 | 33 | 96 | 107
CSc1nc2sc3c(c2c(=O)n1-c1ccccc1)CCN(C)C3 | -11 | 0 | 99 | 101
CN1C(=O)SC(CC(=O)O)C1=O (configuration not stated) | -10 | -2 | 102 | 103
CCCN(CCC)C(=O)Cn1c(=O)n(-c2ccc(Cl)cc2)c(=O)c2c3c(sc21)CCC3 | -11 | -1 | 101 | 103
CN(Cc1ccc(C#N)cc1)S(=O)(=O)/C=C/c1ccccc1 | -4 | -6 | . | .
O=C(Oc1ccccc1)N1CCCCC1 | -8 | -1 | 101 | 100
CC1(C)CC2(CCO1)OC(=O)CC2C(=O)NC1CCCCC1 (configuration not stated) | -25 | -7 | 104 | 99
O=C(O)c1cc(N2CCNCC2)nc2ccccc12 | -16 | 91 | 100 | 99
COc1ccc(-c2noc(N3CCC(C(=O)NCc4cccc(Cl)c4)CC3)n2)cc1 | -19 | -3 | 104 | 99
Fc1ccc(N=Cc2ccco2)c(F)c1F | . | 22 | 104 | 110
COc1cc(CN(C)C(=O)c2cc(C)on2)ccc1OCc1ccccc1 | -45 | -3 | 109 | 104
Cc1ccc2nc(CN3CCN(C/C=C/c4ccccc4)CC3)cn2c1 | 12 | 95 | 93 | 89
COc1ccc2c(c1OC)C(=O)OC2NN(C)c1cccc(F)c1C#N (configuration not stated) | 7 | -8 | 103 | 106
Cc1ccc(NC(=O)c2ccccc2O)cc1 | . | 23 | 100 | 105
Cc1nc(N)sc1N=Nc1cccc2ccccc12 | -71 | -11 | 101 | 88
O=c1cc(O)c2sc3nc(-c4ccccc4)ccc3c2[nH]1 | -30 | . | 88 | 119
O=S(=O)(NCCC1=CCCCC1)c1cccc2cccnc12 | 4 | -6 | 103 | 105
COc1ccc(OC)c(S(=O)(=O)NC2CCN(Cc3ccccc3)CC2)c1 | -8 | -3 | 106 | 107
C=CC(=O)NCc1ccccc1 | . | -8 | 101 | 107
O=C(Nc1ccc(Cl)cc1)Nc1cc(C(=O)NCC2CCCO2)ccc1N1CC2CC(C1)c1cccc(=O)n1C2 (configuration not stated) | -29 | 0 | 102 | 101
CCOc1ccccc1NC(=O)COC(=O)c1cc(Cl)cc(Cl)c1 | . | -15 | 104 | 108
CO[C@H]1/C=C/O[C@@]2(C)Oc3c(C)c(O)c4c(O)c(c5c(c4c3C2=O)NC2(CCN(CC(C)C)CC2)N=5)=NC(=O)/C(C)=C\C=C\[C@H](C)[C@H](O)[C@@H](C)[C@@H](O)[C@@H](C)[C@H](OC(C)=O)[C@@H]1C | 1 | 3 | 100 | 100
CCC(C)[C@H](NC(=O)c1ccco1)C(=O)O (some centres not stated) | 9 | -9 | 98 | 106
Cc1[nH]c2ccccc2c1SCCNC(=O)/C=C/c1ccc2c(c1)OCO2 | -23 | 3 | 103 | 107
CN1CCN(C(=O)c2oc3ccccc3c2NC(=O)c2ccccc2)CC1 | 4 | 4 | 101 | 102
CCN1CSC(=S)N(Cc2ccc(OC)cc2)C1 | -73 | 6 | 101 | 102
COC(=O)c1c(C(=O)OC)c2n(c1C)Cc1ccccc1C2 | . | -20 | 100 | 110
CCC1Oc2ccc(C)cc2N(CC(=O)NCCCN2CCN(Cc3ccccc3)CC2)C1=O (configuration not stated) | -25 | -7 | 99 | 103
N#Cc1cc(C#N)c(SCc2cc3c(cc2Br)OCO3)nc1N | -6 | 2 | 115 | 129
C#CCn1c(COc2ccccc2)nc2ccccc21 | -43 | 5 | 104 | 103
COC(=O)c1cc(NC(=O)/C=C/C(=O)O)ccc1N1CCOCC1 | -5 | -6 | 107 | 108
Cc1cc(-c2ccccc2)n2ncc(-c3ccccc3)c2n1 | -91 | 4 | 97 | 96
COc1ccc(S(=O)(=O)N2CCN(C)CC2)c(Cl)c1Cl | 8 | -3 | 101 | 102
CC(Sc1nnnn1-c1ccccc1)C(=O)NC1CCCC1 (configuration not stated) | 4 | 11 | . | .
COc1ccc(-c2cc(C(F)(F)F)nc(SCCC(=O)NCCc3ccccc3)n2)cc1 | -7 | 4 | 101 | 101
O=C1CCSCC1 | -21 | -9 | 100 | 101
Cc1cc(C)nc(N2CCCC(C)C2)n1 (configuration not stated) | -27 | 89 | 102 | 102
Cc1cccc(-c2noc(CCC(=O)N(C)C)n2)c1 | -4 | -7 | 99 | 101
CC1=C(C)CC2C(=O)N(c3ccc(N(C)C)cc3)C(=O)C2C1 (configuration not stated) | 5 | -1 | 103 | 105
COc1ccc2[nH]c3c(c2c1)CCn1c-3nc2ccccc2c1=O | -45 | 62 | 102 | 105
CN(C)c1ccc(C(=O)OCC(=O)c2ccccc2Cl)cc1 | -26 | 4 | 100 | 103
CC1c2nc3ccccc3n2C(CC(=O)NCc2ccccn2)C(=O)N1Cc1ccccc1 (configuration not stated) | -29 | -7 | 105 | 104
Cc1cc(C(=O)/C(C#N)=C/Nc2ccc(Cl)cc2)c(C(F)(F)F)o1 | -14 | 5 | 103 | 100
Cc1cccc(S(=O)(=O)N2CCSC2c2ccccc2)c1 (configuration not stated) | -6 | . | 102 | 106
CCN(c1ccccc1)S(=O)(=O)c1ccc2[nH]cc(C(=O)NCCC3=CCCCC3)c(=O)c2c1 | -14 | -12 | 102 | 107
CCC(CO)NCc1ccc2c(c1)c1ccccc1n2CC (configuration not stated) | 1 | 82 | 101 | 99
COCCNC(=O)C12CC3CCC(CC(C3)C1)C2 | 13 | 1 | 102 | 102
C[C@@H](C(=O)Nc1ccc(S(=O)(=O)N2CCCC2)cc1)N1C(=O)C2CC=CCC2C1=O (some centres not stated) | -23 | -2 | 102 | 105
(continued)
SMILES | MenB inh | MbtI inh | PV pol inh | PV pol inh intensity
Cc1ccc(OCc2nc(C#N)c(N(C)C)o2)cc1 | -22 | -9 | 103 | 103
O=C(CSCc1ccc(C(=O)O)cc1)Nc1ccccc1 | -7 | 12 | 103 | 105
O=C(CCCc1nc(-c2ccccc2Cl)no1)Nc1ccccc1C(F)(F)F | -37 | -5 | 101 | 100
CS(=O)(=O)NN1C(=O)c2ccccc2NC12CCCC2 | -7 | 4 | 100 | 101
CNC(=S)NNc1nncc2ccccc12 | -25 | 36 | 103 | 101
COc1ccccc1NC(=S)N(C1CCCCC1)C(C)c1ccco1 (configuration not stated) | -31 | 2 | 104 | 106
O=C(Cn1sc2ccccc2c1=O)NCc1ccccc1 | -4 | 2 | 103 | 109
O=C(SCC(=O)N1CCOCC1)c1ccccc1 | . | -10 | 98 | 94
CC1CN(CC(=O)NC(=O)NCc2ccco2)CC(C)O1 (configuration not stated) | 0 | -4 | 97 | 100
COC(=O)c1sc2ncn(N)c(=O)c2c1C | -24 | -7 | 103 | 110
O=c1[nH]c2c(n(C3CCCCC3)c1=O)CCC2 | 2 | -1 | 101 | 97
Cn1c(=O)c(C#N)cc2c(=O)n3ccccc3nc21 | -52 | 88 | 106 | 102
NC(N)=Nc1ccc2c(c1)OCCO2 | -2 | -2 | 98 | 103
CCOC(=O)c1c(C)oc2nc(C)nc(N(C)c3cc(Cl)c(OC)cc3OC)c12 | -28 | -23 | 106 | 101
O=C(Cc1ccccc1)Nc1ccc(-c2nnc3n2CCCCC3)cc1 | . | -10 | 104 | 108
Cc1ccc(-c2cc(-c3ccccc3)nc(NN)n2)cc1 | -58 | -2 | 102 | 101
CN1CCN(P2(=O)CC=CC2)CC1 | -24 | 7 | 101 | 110
CCOC(=O)Cc1c(C(=O)OCC)sc(N)c1C#N | -19 | 28 | 98 | 99
CCN(C(=O)Cn1c(=O)oc2cc(S(=O)(=O)N3CCCCCC3)ccc21)c1ccccc1 | -3 | -3 | 100 | 103

By substructure: the compounds so far with a COOH group (nine)
SMILES | MenB inh | MbtI inh | PV pol inh | PV pol inh intensity
O=C(O)CCCN=C(c1ccc(Cl)cc1)c1cc(F)ccc1O | -1 | . | 99 | 95
Cc1ccc2nc(SCC(=O)O)[nH]c2c1 | -10 | . | 103 | 106
O=C(O)CN1C(=O)/C(=C\c2ccsc2)SC1=S | -316 | . | 106 | 110
CC1(Cc2cn(CCC(=O)O)c3ccccc23)OCCO1 | . | -32 | 99 | 95
CN1C(=O)SC(CC(=O)O)C1=O (configuration not stated) | -10 | -2 | 102 | 103
O=C(O)c1cc(N2CCNCC2)nc2ccccc12 | -16 | 91 | 100 | 99
CCC(C)[C@H](NC(=O)c1ccco1)C(=O)O (some centres not stated) | 9 | -9 | 98 | 106
COC(=O)c1cc(NC(=O)/C=C/C(=O)O)ccc1N1CCOCC1 | -5 | -6 | 107 | 108
O=C(CSCc1ccc(C(=O)O)cc1)Nc1ccccc1 | -7 | 12 | 103 | 105
